Assay outcomes (PubChem BioAssay)
LANA-H2B inh: blockers of LANA interaction with H2A/H2B – biochemical, FP readout, HTS, primary screen; Protein LANA1 (Human herpesvirus 8 type P (isolate GK18)), Q9QR71; cell-free LANA-H2A/H2B peptide, fluorescence polarization; hit rate 0.6% among 320,000; inhibition, % (concentration not given with the values); AID 2629, 2010; in the data active = inhibition mostly above about 10%, no sharp cut-off; inactive = mostly below about 6.7%;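 note: stock transfer was 7.5 nL into about 10 µL; 0% = median of vehicle wells and 100% = median of positive control wells; one replicate is shown; the record names a cut of 25% in any replicate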
Target sequence (Q9QR71 whole entry, looked up): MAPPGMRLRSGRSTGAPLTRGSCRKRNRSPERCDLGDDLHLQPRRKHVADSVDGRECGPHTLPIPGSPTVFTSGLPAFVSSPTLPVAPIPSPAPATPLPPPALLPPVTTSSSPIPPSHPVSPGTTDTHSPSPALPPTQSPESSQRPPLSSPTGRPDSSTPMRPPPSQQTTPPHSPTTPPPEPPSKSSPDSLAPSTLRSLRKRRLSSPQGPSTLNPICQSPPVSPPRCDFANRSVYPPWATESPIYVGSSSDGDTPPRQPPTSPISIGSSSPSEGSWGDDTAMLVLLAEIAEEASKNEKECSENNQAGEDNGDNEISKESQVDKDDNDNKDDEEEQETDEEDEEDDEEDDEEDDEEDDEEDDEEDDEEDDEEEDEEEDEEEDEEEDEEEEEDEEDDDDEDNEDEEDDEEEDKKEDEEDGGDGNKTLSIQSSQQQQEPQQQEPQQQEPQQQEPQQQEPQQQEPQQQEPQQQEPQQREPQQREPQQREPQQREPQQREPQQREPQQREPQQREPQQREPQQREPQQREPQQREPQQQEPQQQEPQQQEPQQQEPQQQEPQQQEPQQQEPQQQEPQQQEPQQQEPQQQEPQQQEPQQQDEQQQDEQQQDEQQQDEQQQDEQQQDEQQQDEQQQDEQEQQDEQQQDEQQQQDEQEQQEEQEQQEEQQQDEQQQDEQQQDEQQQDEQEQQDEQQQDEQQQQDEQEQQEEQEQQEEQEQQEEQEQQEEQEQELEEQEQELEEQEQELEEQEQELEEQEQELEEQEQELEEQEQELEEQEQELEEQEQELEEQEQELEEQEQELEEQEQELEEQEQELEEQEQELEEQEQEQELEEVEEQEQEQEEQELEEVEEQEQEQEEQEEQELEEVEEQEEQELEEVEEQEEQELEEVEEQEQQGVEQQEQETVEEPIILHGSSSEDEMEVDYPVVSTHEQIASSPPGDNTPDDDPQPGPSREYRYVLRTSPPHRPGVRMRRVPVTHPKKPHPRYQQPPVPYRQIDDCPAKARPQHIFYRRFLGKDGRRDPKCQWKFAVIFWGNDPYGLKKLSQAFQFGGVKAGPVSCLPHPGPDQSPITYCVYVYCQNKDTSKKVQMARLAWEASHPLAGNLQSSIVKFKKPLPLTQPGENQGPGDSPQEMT
B2AR ag: beta2AR agonists driving receptor internalization, primary screen, cell-based, FAP fluorogen, flow cytometry; hit rate 0.43% among 340,000; Am2.2-beta2AR cells; reference of the scale not given here; response, % (concentration not given with the values); Beta-2 adrenergic receptor (Homo sapiens), P07550; AID 504454, 2011;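 active = response above a set limit, near 3 SD of response in nonfluorescent compounds, cut at about 42% in these data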;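 note: stock transfer was 100 nL into about 11 µL; a reference agonist was the positive control; negative values mostly stem from fluorescent compounds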
UCH37 DUB inh: inhibitors of human UCH37 deubiquitinase, primary screen, biochemical, Ub-AMC cleavage, fluorescence; Ubiquitin carboxyl-terminal hydrolase isozyme L5 (Homo sapiens), Q9Y5K5; purified proteasome/UCH37; inhibition, % (no concentration beside the values); hit rate 0.33% among 330,000; AID 588478, 2011;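 active = mean of two replicates above 20%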;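 note: 0% = compound-free wells with enzyme and 100% = wells lacking proteasome; stock transfer was 100 nL into about 20 µL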
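Material: Human UCH37 enzyme supplied as purified proteasome complex | Schedule: 30 min preincubation with enzyme, 25 min cleavage at room temperature | Detection: AMC fluorescence 355/460 nm | Measure: % inhibition of Ub-AMC cleavage fluorescence | Controls: Wells without proteasome as full block, compound-free enzyme plus substrate as uninhibited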
HNF4A DNA FP: change in binding of human HNF4A to DNA, primary screen, biochemical, fluorescence polarization, FITC-DNA; hit rate 0.3% among 360,000; 1 h; activity change, % at 10 µM; in the data active = activity change above about 30%, passing the limit was not always enough;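 note: controls were the assay level and a saturating level of protein; the project sought stronger binding though the title names inhibitors; some compounds called inactive have numbers as strong as hits; positive values seem to mean higher polarization but the record does not say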
Bfl-1 A1 inh: caspase 3/7 activation in MEF A1-2A-BIM cells, primary screen, A1 inhibitor project, cell-based, luminescence, HTS; hit rate 0.066% among 330,000; caspase activation, % (no concentration beside the values); Caspase-Glo 3/7 luminescence, 3 h; percent of clofoctol response, vehicle zero;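 active = over half of replicate activation scores above 10%, or exactly half above 10 with the replicate mean above 10; inconclusive = replicate mean below 10 yet half the replicates above 10; inactive = over half of replicates below 10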;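 note: wells of about 30 µL received 50 nL stock; many hits fall short of the cut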
Vif A3G: inhibitors of Vif binding to APOBEC3G peptide, primary screen, biochemical, TR-FRET, GST-Vif 1-94, biotin-A3G peptide, dose response retest (AID 1117319) | hit rate 0.57% among 260,000 | inhibition, %; hits with a dose series show IC50 in µM | TR-FRET GST-Vif / biotin-A3G peptide binding; higher % means a stronger effect; test concentration not given here; strong numbers were not always called active;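 active = above the screen mean plus three standard deviations and confirmed in dose response; inconclusive = results disagree or hit not tested in dose response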;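 note: Vif residues 1-94 fused to GST binding biotinylated APOBEC3G peptide 110-148; 0% = full assay without inhibitor and 100% = GST in place of GST-Vif; retest series ran down from 100 µM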
E coli growth: E. coli growth inhibition, primary screen, OD600; Escherichia coli growth, 23 h; stronger effect = lower value; OD600 absorbance (test concentration not listed); hit rate 0.21% among 330,000; AID 1053175, 2014;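 active = OD600 absorbance below the run mean of sample wells minus 3.6 SD, in any replicate, cut at about 0.56 in these data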;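 note: stock transfer was 300 nL into about 60 µL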
Numbers without * were called inactive; ? = inconclusive; nt = not tested or not shown; & = joins results of further samples.

Screens in order – LANA-H2B inh | B2AR ag | UCH37 DUB inh | HNF4A DNA FP | Bfl-1 A1 inh | Vif A3G | E coli growth
(1) Nc1ccc([As](=O)(O)O)cc1
    0.8&12 | -4 | 0.1 | 5.1 | -1.2 | 20% | 0.72
(2) Cc1cc(C(=O)OCC(=O)Nc2ccc(F)cc2F)c(C)n1C1CC1
    146* | 6 | 4.2 | -0.1 | 1.1 | -4% | 0.66
(3) C=CCn1c(O)c(C(CC)=NCCc2ccccc2)c(=O)[nH]c1=O
    -0.1 | -14 | 3.4 | 2.4 | -0.2 | ? | 0.72
(4) Cc1ccc(/C=C(/C#N)C(=O)NC(=O)Oc2ccccc2)cc1
    1.3 | 3 | 3.3 | 3.9 | 0.3 | 1% | 0.63
(5) Fc1ccc(Cn2nnnc2C(c2ccc(F)cc2)N2CC=C(c3ccc(F)cc3)CC2)cc1 (centres undefined)
    -2.6 | 11 | 1.7 | -0.3 | -0.4 | -7% | 0.72
(6) CC(C)C12CN3CCN(CC(C3)/C1=N\O)C2
    -2.6 | -2 | nt | -1.0 | 0.6 | 3% | nt
(7) Cc1c(C(c2ccc(Br)cc2)c2c(O)c3ccccc3oc2=O)c(=O)n(-c2ccccc2)n1C (centres undefined)
    -3.2 | -8 | 5.2 | -2.1 | 0.8 | 2% | 0.69
(8) Oc1ccccc1C1NCc2ccccc2-n2cccc21 (centres undefined)
    -0.4 | -7 | 1.4 | 1.0 | 0.8 | 9% | 0.64
(9) CC1(C)C2([N+](=O)[O-])CNCC1([N+](=O)[O-])CNC2
    -1.1 | -2 | 3.2 | 1.8 | 0.2 | 9% | 0.74
(10) C/C(O)=C(\C#N)C(=O)Nc1cc(Br)ccc1Br
    -2.0 | -1 | 0.5 | -0.9 | -0.3 | nt | nt
(11) COc1ccccc1NP1(=O)OCC(C)([N+](=O)[O-])CO1 (centres undefined)
    nt | -4 | nt | -1.4 | nt | 1% | nt
(12) CCC1CN1P1(=O)OCC(C)([N+](=O)[O-])CO1 (centres undefined)
    nt | -4 | nt | -4.2 | nt | 1% | nt
(13) COc1ccccc1N1CCN(Cc2cnc(-c3ccccc3)[nH]2)CC1
    -3.7 | -6 | 2.3 | -0.8 | 0.3 | 6% | 0.68
(14) CC(C)Oc1cccc(C(=O)C2CCCN(C3CCOCC3)C2)c1 (centres undefined)
    0.6 | -5 | -0.3 | -0.1 | -0.2 | nt | 0.71
(15) CCC(=NCCc1ccccc1)c1c(O)[nH]c(=O)[nH]c1=O
    -5.1 | -4 | 1.0 | -2.7 | 0.9 | 2% | 0.67

Among those listed so far, these have an aryl methoxy group.
Screens in order – LANA-H2B inh | B2AR ag | UCH37 DUB inh | HNF4A DNA FP | Bfl-1 A1 inh | Vif A3G | E coli growth
(11) COc1ccccc1NP1(=O)OCC(C)([N+](=O)[O-])CO1 (centres undefined)
    nt | -4 | nt | -1.4 | nt | 1% | nt
(13) COc1ccccc1N1CCN(Cc2cnc(-c3ccccc3)[nH]2)CC1
    -3.7 | -6 | 2.3 | -0.8 | 0.3 | 6% | 0.68

(list continues)
Screens in order – LANA-H2B inh | B2AR ag | UCH37 DUB inh | HNF4A DNA FP | Bfl-1 A1 inh | Vif A3G | E coli growth
(16) CC(=O)OC1N=C(c2ccccc2)c2cc(Br)ccc2NC1=O (centres undefined)
    2.7 | -5 | 1.5 | 5.0 | 0.3 | 0% | 0.66
(17) Nc1ccccc1-[n+]1c(-c2ccccc2)cc(-c2ccccc2)cc1-c1ccccc1
    4.2 | 4 | 3.3 | -0.1 | 2.4 | 30% | 0.67
(18) CC1CC2C(C(O)CC3(C)C(O)CCC23)C2(C)CCC(=O)C=C12 (centres undefined)
    nt | 1 | 1.5 | 1.0 | nt | 2% | 0.69
(19) COc1ccccc1-n1c(-c2ccccc2)nc2ccccc2c1=O
    nt | -4 | 3.4 | -0.3 | nt | nt | 0.67
(20) CC(C)[C@H]1CC2C3CC=C4C[C@@H](O)CC[C@]4(C)C3CC[C@]2(C)[C@H]1O (some centres undefined)
    2.9 | nt | 2.6 | 1.1 | -0.3 | nt | 0.65
(21) CC(=O)OC1C(O)C(C)OC(OC2C(OC(=O)C3CCC4C(C3)OC3(CC(OC(=O)/C=C/c5ccccc5)C(C)CO3)C43CO3)OC(C)C(O)C2OC(C)=O)C1O (centres undefined)
    nt | 21 | nt | 4.1 | nt | -7% | nt
(22) COC(=O)C1=C(c2ccccc2)C[C@@H]2CC[C@H]1N2C(=O)NCc1cccc2ccccc12
    4.4 | -2 | 1.3 | 0.0 | 0.0 | nt | nt
(23) C[C@]12CCC3C(CC[C@H]4C[C@H](O)CC[C@]34C)C1CC(=O)[C@@H]2O (some centres undefined)
    0.9 | 17 | nt | 6.5 | -0.8 | -7% | nt
(24) CCCC(=O)NC(Oc1ccc(Cl)cc1Cl)C(Cl)(Cl)Cl (centres undefined)
    -0.5 | -3 | 3.4 | -0.5 | -0.6 | -2% | 0.7
(25) CCOc1ccc(-n2c(O)c(C=Nc3ccc(NC(C)=O)cc3)c(=O)[nH]c2=O)cc1
    -4.9 | -1 | -56 | 6.6 | 0.4 | 2% | 0.62
(26) Cn1c(O)c(C=NC2CCN(Cc3ccccc3)CC2)c(=O)n(C)c1=O
    0.7 | 1 | 0.7 | -2.0 | 0.2 | nt | 0.7
(27) COc1ccccc1CN1CCCC(C(=O)c2ccccc2OC)C1 (centres undefined)
    -1.8 | 1 | 1.4 | -1.1 | 0.4 | nt | 0.71
(28) Cc1cc(OCC(=O)N[C@@H](Cc2ccccc2)C(=O)O)c2c3c(c(=O)oc2c1)CCC3
    -4.4 | -9 | -134 | -0.5 | 0.0 | nt | 0.74
(29) C[C@]12CCCCC1=CC(=O)C1C2CC[C@@]2(C)C1C[C@@H](F)[C@@H]2O (some centres undefined)
    nt | -6 | -0.7 | -0.8 | nt | 0% | 0.69
(30) Clc1ccc(C[n+]2c(-c3ccccc3)cc(-c3ccccc3)cc2-c2ccccc2)cc1
    2.9 | 0 | -5.1 | 2.1 | -1.0 | nt | 0.58
(31) COc1ccccc1N=Nc1c(O)[nH]c(=S)[nH]c1=O
    -20 | 12 | 19 | 69* | -2.2 | -3% | 0.66
(32) O=CC(Cl)P(=O)(N1CCOCC1)N1CCOCC1 (centres undefined)
    4.8 | 2 | 1.8 | 1.1 | 0.5 | -2% | 0.67
(33) CSc1ncc(Cl)c(C(=O)O)n1
    -2.7 | -3 | 1.2 | 4.0 | -0.5 | 0% | 0.72
(34) CC(C)Cc1[nH]c(=O)c(C#N)c2c1CCC2
    -4.4 | 4 | -105 | 0.3 | -0.3 | -3% | 0.7
(35) N#CCCn1cc(C(=O)Nc2ccccc2Cl)c(-c2ccc(F)cc2)n1
    -4.5 | -12 | 5.3 | 0.7 | 0.8 | -1% | 0.63
(36) COc1ccc2c(C)c(CC(=O)N3C[C@H]4C[C@@H](C3)c3cccc(=O)n3C4)c(=O)oc2c1C
    5.4 | 2 | -224 | 2.6 | 0.4 | nt | 0.71
(37) Cc1cc(=O)oc2c(C)c(OCC(=O)N3CCN(Cc4ccccc4)CC3)ccc12
    1.6 | 9 | -10 | 2.1 | -0.7 | nt | 0.62
(38) O=C1NC(=S)NC(=O)C12C(c1ccccc1)NC(=S)NC2c1ccccc1 (centres undefined)
    1.3 | -2 | 6.0 | 2.4 | 0.1 | -15% | 0.72
(39) C[C@H]1C/C=C/[C@H]2[C@H](O)[C@H](C)[C@@](C)(O)[C@H]3[C@H](Cc4ccccc4)NC(=O)[C@]32[C@H](O)/C=C/[C@](C)(O)C1
    -11 | nt | nt | 2.2 | 0.4 | nt | nt
(40) COC(=O)C1=C(c2ccc(OCc3ccccc3)cc2)C[C@@H]2CC[C@H]1N2C(=O)NCc1ccccc1
    5.0 | 7 | 1.4 | -1.7 | 2.5 | nt | nt
(41) Fc1cccc(CN2CCN(c3ccc(Cl)cc3)CC2)c1
    -1.2 | 1 | 3.1 | -0.5 | -0.1 | 1% | 0.64
(42) C=CCN(c1ccc(C(=O)N(CC)CC)cc1)S(C)(=O)=O
    3.0 | -2 | 1.0 | -1.9 | 0.0 | nt | 0.73
(43) O=c1[nH]c(=O)n(C2CCCCCC2)c(O)c1C=NC1CCN(Cc2ccccc2)CC1
    -2.0 | 11 | 0.0 | 8.7 | 0.8 | 3% | 0.72
(44) O=C(CCc1nnc2ccc(NCc3ccc(F)cc3)nn12)N1CCC2(CC1)OCCO2
    -0.2 | 4 | 0.6 | 4.3 | -0.8 | -6% | 0.68
(45) Cc1ccc(C)c(OCc2cc(C(=O)N3C[C@H]4C[C@@H](C3)c3cccc(=O)n3C4)no2)c1
    2.5 | 4 | -1.2 | -0.6 | -0.1 | -2% | 0.71
(46) CC1=Nc2ccccc2/C1=C/c1c(O)[nH]c(=O)[nH]c1=O
    -3.1 | 19 | 2.8 | 2.0 | 0.0 | nt | 0.69
(47) O=c1c2cc(Cl)cc(Cl)c2nc(CN2CCOCC2)n1-c1ccccc1F
    1.1 | -23 | 5.7 | -1.8 | -0.6 | 0% | 0.72
(48) CC12CC(O)C3C(CCC4=CC(=O)CCC43C)C1CCC2=O (centres undefined)
    nt | -5 | 2.3 | 2.0 | nt | -1% | 0.68
(49) COc1cccc(CN2CCN(C(=O)Cc3ccccc3OC)CC2)c1
    -2.4 | -1 | 1.8 | 0.4 | -0.1 | -4% | 0.65
(50) COC(=O)C1=C(c2ccc(-c3ccccc3)c(F)c2)C[C@@H]2CC[C@H]1N2C(=O)NCc1cc(C)oc1C(F)(F)F
    -17 | -1 | 6.4 | -1.7 | -0.6 | nt | nt
(51) N#CC(C#N)=Cc1ccc(-c2ccccc2)o1
    -16 | nt | nt | nt | 1.0 | -3% | nt
(52) Cc1ccsc1C(=O)C1CCCN(Cc2cn(C)nc2C)C1 (centres undefined)
    2.0 | -2 | 3.6 | -3.4 | 0.4 | 4% | 0.69
(53) O=C(COc1ccccc1)NCCc1cnc[nH]1
    -1.7 | -2 | 2.3 | 4.2 | 0.7 | -6% | 0.69
(54) CN(C)C(=O)Oc1ccc2ccccc2c1Cl
    2.3 | -10 | 1.9 | 1.1 | -0.5 | -9% | 0.65
(55) CCN(CC)C(=O)c1ccc(NC(=O)c2ccc3c(c2)NC(=O)CS3)cc1
    -2.7 | 8 | 2.3 | -0.5 | 0.4 | 4% | 0.67
(56) O=C1C2CCCN2C(c2ccc(Cl)c(Cl)c2)N1c1ccccn1 (centres undefined)
    -0.9 | -11 | 3.8 | 0.9 | -1.2 | 13% | 0.72
(57) Cc1cc(OCCCC(=O)NCc2cccs2)ccc1Cl
    23* | -3 | nt | -1.9 | 0.3 | -3% | nt
(58) Cc1ccccc1NC1(C#N)CCCCC1
    -0.1 | 9 | -1.1 | -2.6 | -0.4 | nt | 0.67
(59) CCCCn1c(O)c(C=NCCCN(CC)CC)c(=O)[nH]c1=O
    1.9 | 4 | 1.3 | 2.2 | -0.3 | 1% | 0.67
(60) Cc1ccc(N2C(=O)NC(=O)/C(=C/c3cnc(-c4ccccc4)nc3)C2=O)cc1C
    -1.6 | 1 | 5.6 | -1.2 | -0.6 | ? | 0.65
(61) CC1(C)CN=C(Nc2ccc(F)c(F)c2)S1
    -3.1 | -1 | 3.3 | 3.3 | 0.3 | ? | 0.76

These rows are one share of the data, so the mix of outcomes need not match the whole.
